Choline anaer gr: growth inhibitors of anaerobic choline-fed gram-negatives, minimal medium, absorbance | Gram-negative bacterium anaerobic choline minimal medium; hits give low values; many inactives read as strong as hits in the columns shown | calls only | 0.2% of 55,000 active | AID 1963822, 2024;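 active = growth z-score on choline under -2 at 7 or 20 h with little or no fall on glycerol, limits in tiers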;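 note: stock transfer was 300 nL into about 50 µL; the organism is E. coli; final concentration not given here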
Choline anaer gr early: recorded beside Choline anaer gr, whose call it bears; z-score; measured here: choline growth z-score, timepoint 1;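 score of optical density at 7 h as mean of two plates; lower means less growth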
Starred values were filed as active, the others as inactive; & = joins results of further samples. These rows are one share of the data; rates above refer to the full screens.

Screening COc1ccc(OC)c(NC(=O)N2CCN(c3cc(-c4cc(F)ccc4OC)ncn3)CC2)c1 returned Choline anaer gr inactive and Choline anaer gr early 1.5.
`Cc1nc(CN2C(=O)COc3cc(S(=O)(=O)NCCC4=CCCCC4)c(Cl)cc32)no1` gave Choline anaer gr inactive and Choline anaer gr early 0.39.
`CCOC(=O)c1c(NC(=O)CCCc2nc(-c3cccnc3)no2)sc2c1CCCC2` gave Choline anaer gr inactive and Choline anaer gr early 0.08.
Cc1ccc(S(=O)(=O)c2cnc(N3CCc4ccccc4C3)nc2N)cc1C was read as Choline anaer gr inactive and Choline anaer gr early 1.5.
`O=C(C1CCCO1)N1CCC(c2nc(-c3ccc(F)cc3)no2)CC1` (stereo not given) gave Choline anaer gr inactive and Choline anaer gr early -0.21.
For COc1ccccc1C1Nc2ccc(Cl)cc2[C@H]2OCCC[C@@H]12 (stereo not given in full) the results were Choline anaer gr inactive and Choline anaer gr early 1.2.
For CCOc1ccccc1C1C(C(=O)Nc2ccccc2)=C(C)Nc2c(C(=O)Nc3ccc(F)cc3)cnn21 (stereo not given) the results were Choline anaer gr inactive and Choline anaer gr early 0.05.
For O=C(CC1CCCC1)N1CCN(c2ncnc3c2nnn3-c2ccccc2)CC1 the results were Choline anaer gr inactive and Choline anaer gr early 1.8.
For COc1cccc(-c2ccc(=O)n(CCc3nc(-c4ccccc4)no3)n2)c1 the results were Choline anaer gr inactive and Choline anaer gr early -0.96.
`CCN(CC)CCNCc1ccc(-c2ccc(F)cc2)o1` gave Choline anaer gr inactive and Choline anaer gr early 0.08.
For O=C(NCCCn1c(-c2ccncc2)nc2cccnc21)NC1CCCC1 the results were Choline anaer gr inactive and Choline anaer gr early -0.13.
`O=C1Nc2ccccc2C12CCN(S(=O)(=O)c1ccc(F)cc1)C2` (stereo not given) gave Choline anaer gr inactive and Choline anaer gr early 0.
`Cc1ccc(N(Cc2nc3nc(C)cc(=O)n3[nH]2)C(=O)C(C)C)cc1` gave Choline anaer gr inactive and Choline anaer gr early -0.68.
Screening COc1ccc(N(C(=O)c2ccc(C)cc2)S(=O)(=O)c2ccc3c(c2)n(C)c(=O)n3C)cc1 returned Choline anaer gr inactive and Choline anaer gr early 0.89.
For CCN(CC)CCNC(=O)c1ccc(NS(C)(=O)=O)cc1 the results were Choline anaer gr inactive and Choline anaer gr early 0.7.
O=C(c1cc2c(s1)-c1ccc(Cl)cc1S(=O)(=O)C2)N1CCC(Cc2ccccc2)CC1 was read as Choline anaer gr inactive and Choline anaer gr early 0.62.
O=C(CN1CCN(C(=O)c2sc3ncccc3c2-n2cccc2)CC1)N1CCCC1 was read as Choline anaer gr inactive and Choline anaer gr early -0.33.
O=C(NCCn1c(-c2ccccc2)nc2cccnc21)c1ccc2c(c1)OCO2 was read as Choline anaer gr inactive and Choline anaer gr early -0.31.
Screening Cc1ccc(-c2nccc(N3CCC(C(=O)NCCC4=CCCCC4)CC3)n2)cc1 returned Choline anaer gr inactive and Choline anaer gr early 1.5.
For Cc1ccc2c(c1)c(-n1cccc1)c1n2CC(C)(C(=O)NC2CCC(C)CC2)N(Cc2ccccc2Cl)C1=O (stereo not given) the results were Choline anaer gr inactive and Choline anaer gr early -1.5.
Screening CCC(=O)Nc1ccc2nc(SCc3cc(=O)n4[nH]c(-c5ccccc5)nc4n3)sc2c1 returned Choline anaer gr inactive and Choline anaer gr early -0.4.
CN1C(C(=O)Nc2ccccn2)=C(O)c2sccc2S1(=O)=O was read as Choline anaer gr inactive and Choline anaer gr early -0.29&0.49.
COC(=O)c1cc(S(=O)(=O)N(C)CC(=O)Nc2cccc(OC)c2)cn1C was read as Choline anaer gr inactive and Choline anaer gr early -0.14.
Screening Clc1ccc2nsnc2c1NC1=NCCN1 returned Choline anaer gr inactive and Choline anaer gr early -0.9&0.36&0.82.
COc1ccc(-n2nc(C(=O)Nc3ccc(OC)c(OC)c3)c(=O)n(C)c2=O)cc1 was read as Choline anaer gr inactive and Choline anaer gr early 3.5.
`Clc1cc(Cl)cc(-c2ccc(CNCc3cccnc3)o2)c1` gave Choline anaer gr inactive and Choline anaer gr early -0.01.
Screening N#CC1=CN(c2ccc(Cl)cc2F)c2cc(F)ccc2S1(=O)=O returned Choline anaer gr inactive and Choline anaer gr early 0.48.
`CCc1ccc(O)c(C(=O)c2cnc3cc(-c4ccc(OC)cc4)nn3c2)c1` gave Choline anaer gr inactive and Choline anaer gr early 1.2.
For O=C(Nc1ccc(Cl)cc1)C1CCC(=O)N1S(=O)(=O)c1ccc(F)cc1 (stereo not given) the results were Choline anaer gr inactive and Choline anaer gr early 0.79.
Cc1[nH]c(-c2nnc(C3CCC3)o2)c(C)c1S(=O)(=O)NCC(C)C was read as Choline anaer gr inactive and Choline anaer gr early 0.95.
O=C(CCc1nc(CSc2nc3ccccc3s2)no1)Nc1ccc(F)c(Cl)c1 was read as Choline anaer gr inactive and Choline anaer gr early 1.4.
`COC(=O)C1=C(C)NC(C)=C(C(=O)OC(C)(C)CN(C)CCC(c2ccccc2)c2ccccc2)C1c1cccc([N+](=O)[O-])c1` (stereo not given) gave Choline anaer gr inactive and Choline anaer gr early 0.01.
Screening COc1ccc(-c2ncc3c(=O)n(CC(=O)Nc4ccc(F)cc4F)c(=O)n(C)c3n2)cc1 returned Choline anaer gr inactive and Choline anaer gr early -0.23.
For CC1CCN(S(=O)(=O)c2ccc(-c3noc(C(=O)NCCN4CCOCC4)n3)cc2)CC1 the results were Choline anaer gr inactive and Choline anaer gr early -1.8.
Screening CC(C)c1cc(C2CCCN2C(=O)Nc2ccc(Br)cc2F)on1 (stereo not given) returned Choline anaer gr inactive and Choline anaer gr early -0.67.
For Cc1cc(S(=O)(=O)N2CCC(c3noc(-c4ccccc4)n3)CC2)ccc1F the results were Choline anaer gr inactive and Choline anaer gr early -1.3.
Screening COc1ccc(-n2nnc(C(=O)Nc3ccc(S(N)(=O)=O)cc3)c2C)cc1 returned Choline anaer gr inactive and Choline anaer gr early -0.45.
`O=C(c1ccc(Cl)s1)N1CCCCC1CCN1CCOCC1` (stereo not given) gave Choline anaer gr inactive and Choline anaer gr early -0.34.
`O=C(Nc1ccccc1)Nc1nc(CC(=O)N2CCN(c3ccccc3Cl)CC2)cs1` gave Choline anaer gr inactive and Choline anaer gr early 0.31.
`Cc1cc(NC(C)C)n2nc(C)c(-c3ccc(F)cc3)c2n1` gave Choline anaer gr inactive and Choline anaer gr early -1.1.
For CCc1ccc(OC(C)C(=O)Nc2noc(-c3ccc(Cl)cc3)n2)cc1 (stereo not given) the results were Choline anaer gr inactive and Choline anaer gr early -0.47.
For COc1cc2ncc(C#N)c(Nc3cc(OC)c(OC)c(OC)c3)c2cc1OC the results were Choline anaer gr inactive and Choline anaer gr early -1.3.
Screening CN(CC(=O)N1CCN(c2cccc(Cl)c2)CC1)S(=O)(=O)c1c[nH]c(C(=O)N2CCCC2)c1 returned Choline anaer gr inactive and Choline anaer gr early -0.72.
Cc1nc2ccc(S(=O)(=O)CCC(=O)NCCc3ccccc3)cc2s1 was read as Choline anaer gr inactive and Choline anaer gr early -2.1.
`CCC(C)n1nnc2cc(S(=O)(=O)N(C)CC(=O)NCc3cccnc3)ccc21` (stereo not given) gave Choline anaer gr inactive and Choline anaer gr early -0.93.
Screening CCNC(=O)N1CCCN(Cc2ccc(C)s2)CC1 returned Choline anaer gr inactive and Choline anaer gr early -0.29.
CC(NC(=O)C1CCN(c2ncccc2-c2nc(-c3ccccc3)no2)CC1)c1ccccc1 (stereo not given) was read as Choline anaer gr inactive and Choline anaer gr early 0.73.
For CCc1nn(-c2ccccc2)c2nc(-c3ccccc3)nc(SCC(=O)NCc3cccc(OC)c3)c12 the results were Choline anaer gr inactive and Choline anaer gr early -1.3.
`Clc1ccccc1-c1nnc2sc(-c3ccc4ccccc4n3)nn12` gave Choline anaer gr inactive and Choline anaer gr early 1.1.
Cc1cccc(NC(=O)NCC(c2cccnc2)c2c[nH]c3ccccc23)c1C (stereo not given) was read as Choline anaer gr inactive and Choline anaer gr early -0.02.
`Cc1n[nH]c(=O)c2cc(S(=O)(=O)N3CCC(Cc4ccccc4)CC3)cn12` gave Choline anaer gr inactive and Choline anaer gr early 0.73.
`O=C(COc1ccc(Br)cc1)Nc1noc(-c2ccccc2)n1` gave Choline anaer gr inactive and Choline anaer gr early 0.42.
`CCCOc1ccc(C2CC(=O)Nc3c2cnn3-c2ccc3nnc(C)n3n2)cc1OCC` (stereo not given) gave Choline anaer gr inactive and Choline anaer gr early 0.58.
For Cc1nc(-c2cc(S(=O)(=O)Nc3ccc(F)cc3Cl)c(C)s2)cs1 the results were Choline anaer gr inactive and Choline anaer gr early 0.3.
For Cc1[nH]nc2c1C(c1ccccc1)N(c1ccc(Br)cc1)C2=O (stereo not given) the results were Choline anaer gr inactive and Choline anaer gr early -1.2.
`CCCc1cc(=O)[nH]c(-n2nc(C)cc2NC(=O)c2ccc(C(C)(C)C)cc2)n1` gave Choline anaer gr inactive and Choline anaer gr early 1.8.
For COc1ccc2[nH]cc(/C=C/c3nc4ccccc4c(=O)n3-c3ccccc3)c2c1 the results were Choline anaer gr inactive and Choline anaer gr early -1.2.
For CCOc1ccc(CNS(=O)(=O)c2cc(-c3cnn4c(C)cc(C)nc34)ccc2C)cc1OCC the results were Choline anaer gr inactive and Choline anaer gr early -1.4.
For COc1ccc2[nH]cc(CCNC(=O)c3cnn4c(-c5ccc6c(c5)OCO6)ccnc34)c2c1 the results were Choline anaer gr inactive and Choline anaer gr early -0.54.
For O=C1CCSc2ccc(S(=O)(=O)Nc3ccc(Cl)cn3)cc2N1 the results were Choline anaer gr inactive and Choline anaer gr early -1.

Structural class: those above with an aryl thioether with sulfur outside any ring.
Screening CCC(=O)Nc1ccc2nc(SCc3cc(=O)n4[nH]c(-c5ccccc5)nc4n3)sc2c1 returned Choline anaer gr inactive and Choline anaer gr early -0.4.
O=C(CCc1nc(CSc2nc3ccccc3s2)no1)Nc1ccc(F)c(Cl)c1 was read as Choline anaer gr inactive and Choline anaer gr early 1.4.
For CCc1nn(-c2ccccc2)c2nc(-c3ccccc3)nc(SCC(=O)NCc3cccc(OC)c3)c12 the results were Choline anaer gr inactive and Choline anaer gr early -1.3.

Next compounds.
`CN(CC1COCCO1)c1ccc(NC(=O)c2ccc(F)cc2)cc1C(=O)O` (stereo not given) gave Choline anaer gr inactive and Choline anaer gr early 0.29.
CCCCOC(=O)NS(=O)(=O)c1sc(CC(C)C)cc1-c1ccc(Cn2c(CC)nc3c(C)cc(C)nc32)cc1 was read as Choline anaer gr inactive and Choline anaer gr early 0.72.
`CC(C)NC(=O)N1CCCC(c2cccc(C(=O)NCCCN3CCCCC3)c2)C1` (stereo not given) gave Choline anaer gr inactive and Choline anaer gr early 0.24.
Screening CC(C)CCN1c2nc(Nc3cc(F)c(O)c(F)c3)ncc2N(C)C(=O)C1C (stereo not given) returned Choline anaer gr inactive and Choline anaer gr early 0.43.
For Cc1ccc(Oc2nc3ccccc3n3c(=O)[nH]nc23)cc1 the results were Choline anaer gr inactive and Choline anaer gr early 0.81.
O=C(c1nc(-c2ccccc2)n(-c2cccc(Cl)c2)n1)N1CCc2ccccc2C1 was read as Choline anaer gr inactive and Choline anaer gr early -1.8.
COCCNc1cc(C(C)(C)C)nc2c(-c3ccc(F)cc3)c(C)nn12 was read as Choline anaer gr inactive and Choline anaer gr early 0.51.
For CCOc1ccc2nc(NC(=O)c3ccc(S(=O)(=O)N4CCc5ccccc5C4)cc3)sc2c1 the results were Choline anaer gr inactive and Choline anaer gr early 1.3.
Cc1cc(N2CCC(C)CC2)nc2ccc(NC(=O)CCC(=O)N3CCC(C)CC3)cc12 was read as Choline anaer gr inactive and Choline anaer gr early 1.
Screening COCCN1C(=O)CSc2c(c(C)nn2-c2ccccc2)C1C(=O)NCc1ccccc1OC (stereo not given) returned Choline anaer gr inactive and Choline anaer gr early 0.41.
Screening CC(C)CCn1c(=O)c2ccccc2n2c(=O)n(CC(=O)Nc3ccc4c(c3)OCO4)nc12 returned Choline anaer gr inactive and Choline anaer gr early 1.3.
Screening Cc1ccc(C)c(CN2CCC(CNC(=O)Nc3c(C)cccc3C)CC2)c1 returned Choline anaer gr inactive and Choline anaer gr early 0.53.
Screening CCOC(=O)c1cccc(NC(=O)C2CCCN2S(=O)(=O)c2ccc3c(c2)NC(=O)CO3)c1 (stereo not given) returned Choline anaer gr inactive and Choline anaer gr early -0.75.
For O=C1CCCc2c1cc(C(=O)NCc1ccc3c(c1)OCO3)c(=O)n2-c1ccc(F)cc1 the results were Choline anaer gr inactive and Choline anaer gr early 0.57.
Screening O=c1c2ccccc2n2c(=O)n(Cc3ccccc3Cl)nc2n1CCc1ccccc1 returned Choline anaer gr inactive and Choline anaer gr early -0.02.

The list goes on; it opens with the 3 that closed the last part.
Screening CCOC(=O)c1cccc(NC(=O)C2CCCN2S(=O)(=O)c2ccc3c(c2)NC(=O)CO3)c1 (stereo not given) returned Choline anaer gr inactive and Choline anaer gr early -0.75.
For O=C1CCCc2c1cc(C(=O)NCc1ccc3c(c1)OCO3)c(=O)n2-c1ccc(F)cc1 the results were Choline anaer gr inactive and Choline anaer gr early 0.57.
Screening O=c1c2ccccc2n2c(=O)n(Cc3ccccc3Cl)nc2n1CCc1ccccc1 returned Choline anaer gr inactive and Choline anaer gr early -0.02.
For COc1ccc(OC)c(S(=O)(=O)N2CCC3(CC2)Nc2cc(F)ccc2-n2cccc23)c1 the results were Choline anaer gr inactive and Choline anaer gr early 0.12.
For CC[N+](CC)(CC)CCOc1cccc(OCC[N+](CC)(CC)CC)c1OCC[N+](CC)(CC)CC the results were Choline anaer gr inactive and Choline anaer gr early 0.5&1.1&-0.43.
For CCOC(=O)c1c(NC(=O)c2nc(S(=O)(=O)CC)ncc2Cl)sc2c1CCCC2 the results were Choline anaer gr inactive and Choline anaer gr early -0.3.
`CCc1c(C)nc2ncnn2c1Sc1ccccc1NC(=O)Cc1ccc(Cl)cc1` gave Choline anaer gr inactive and Choline anaer gr early 0.9.

Pulled by structure from above:
CN1C(C(=O)Nc2ccccn2)=C(O)c2sccc2S1(=O)=O was read as Choline anaer gr inactive and Choline anaer gr early -0.29&0.49.
For COc1ccc(OC)c(S(=O)(=O)N2CCC3(CC2)Nc2cc(F)ccc2-n2cccc23)c1 the results were Choline anaer gr inactive and Choline anaer gr early 0.12.

Screening data as filed in PubChem BioAssay.
